VDR inhibitor = Inhibitors of the vitamin D receptor (VDR): qHTS; Vitamin D3 receptor (Homo sapiens), P11473; VDR-SRC2-3 peptide fluorescence polarization, 2 h; Potency, µM, for inactives: max response, negative = inhibition, actives largely listed as inhibitors; 0.93% of 400,000 active; AID 504847, 2011; active = well fitted inhibition curve with a large enough effect; inconclusive = small, poorly fitted or top-dose-only effect, or another doubt; inactive = no such curve, though single readings can be large or run the other way; also: series mostly up to about 120 µM
Target sequence (P11473 whole entry, looked up): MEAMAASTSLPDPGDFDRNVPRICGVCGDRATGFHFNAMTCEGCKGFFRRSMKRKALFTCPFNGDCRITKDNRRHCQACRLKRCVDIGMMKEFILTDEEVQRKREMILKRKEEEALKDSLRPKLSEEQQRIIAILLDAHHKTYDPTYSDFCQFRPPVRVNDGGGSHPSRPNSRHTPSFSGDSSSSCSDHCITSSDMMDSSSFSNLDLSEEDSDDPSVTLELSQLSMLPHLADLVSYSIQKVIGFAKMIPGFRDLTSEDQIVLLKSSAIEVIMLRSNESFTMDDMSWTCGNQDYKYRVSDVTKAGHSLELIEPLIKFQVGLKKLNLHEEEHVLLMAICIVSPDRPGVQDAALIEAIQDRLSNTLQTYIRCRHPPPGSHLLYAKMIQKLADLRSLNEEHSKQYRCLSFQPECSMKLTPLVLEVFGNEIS
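After 23 nl compound addition and a short centrifugation, plates sat for 2 hours at ambient temperature; polarization of fluorescence then indicated loss of VDR binding to peptide SRC2-3.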
The depositor's hits bear a star; ? = inconclusive; & = joins results of further samples. % is scaled to controls: 0 for no effect and ±100 for the full control effect; potency is read from the fitted curve at half-maximal effect. These rows are one share of the data. The share of hits here may be higher or lower than overall.

VDR inhibitor	mol
-1%	Cc1cc(OCC(=O)Nc2cccnc2)c2c(C)c(C)c(=O)oc2c1
-11%	CC(=O)Nc1ccc2c(CSc3nncs3)cc(=O)oc2c1
-6%&1%	O=C(NCCS(=O)(=O)N1CCN(c2ccccc2F)CC1)C1CC(=O)N(c2ccc(F)cc2)C1 (configuration not stated)
-2%	COC(=O)c1cc(N=CC2=C(O)CC(C)(C)CC2=O)cc(C(=O)OC)c1
-26%	Cc1ccc(C(=O)NN=CC(=O)c2ccccc2)c(C)c1
8%	COc1ccc(CC(=O)OCC(=O)Nc2cc(Cl)ccc2C)cc1
-2%	CCCNC(=O)Cn1cnc2sc(C(=O)N3CCN(CCC)CC3)c(C)c2c1=O
-5%	N=C(N)SCc1ccccc1Cl
-11%	O=C(Cc1ccc(Nc2nc3ccc(Br)cc3[nH]2)cc1)NCCc1cccs1
3%	O=C(c1cc(C2CC2)on1)N1CCCC(N2CCN(c3cccc(C(F)(F)F)c3)CC2)C1 (configuration not stated)

Following part:
VDR inhibitor	mol
4%	Cc1ccc(N2CC(C(=O)NCC3CCCO3)CC2=O)cc1Cl (configuration not stated)
2%	Cc1ccc(N2CCN(/N=C/c3sccc3C)CC2)cc1
-3%	COc1ccccc1NC(=O)NNC(=O)CN1C(=O)COc2ccccc21
-8%	CCN(CCCNS(=O)(=O)c1cc(-c2cc(C)no2)ccc1C)Cc1ccccc1
-23%&-9%	Clc1ccc(Cn2ccc3ccccc32)cn1
-9%	C=CC[C@@H](Cc1ccc(F)cc1)C(=O)OC[C@@H]1CCCN1C(=O)[C@@H](CC=C)CC(=O)N(CCO)Cc1ccccc1
-9%	Cc1scc(C(=O)N/N=C/c2ccsc2)c1C
-1%	CCCC(=O)Nc1ccc(Cl)c(NC(=S)NC(=O)c2ccco2)c1
7%	COc1cccc(-c2nnn(C/C(N)=N/O)n2)c1
-6%	O=C(NC1CCCCC1)c1csnn1

Additional compounds:
VDR inhibitor	mol
16%	COc1ccc(/C=C/C2=NN(Cc3ccccc3)C(=O)CC2)cc1
3%	CSc1ncccc1C(=O)OCC(=O)N(CC(C)C)c1c(N)n(Cc2ccccc2)c(=O)[nH]c1=O
6%	CC1(c2ccccc2)NC(=O)N(CC(=O)N2CC(=O)Nc3ccccc32)C1=O (configuration not stated)
-6%	Cc1ccccc1-c1nc(CN2CCC(C(=O)N3CCN(c4ccccn4)CC3)CC2)c(C)o1
-11%	COC(=O)c1cc(=O)n(Cc2cccs2)c(=Nc2ccccc2)s1
1%	COc1ccccc1NC(=O)C1CC(=O)OC1c1ccccc1 (configuration not stated)
-9%	F[Si-2](F)(F)(F)(F)F
-15%	Cc1ccc(C#N)c(SCC(=O)Nc2nccs2)n1
-3%	COc1ccc(S(=O)(=O)N2CCC(C(=O)NC3CCCCC3)CC2)cc1C
-9%	COc1ccc(CN2CCCC(C(=O)c3cccc(C(F)(F)F)c3)C2)cc1O (configuration not stated)

Additional structures follow:
VDR inhibitor	mol
-2%	Cc1c(C(=O)/C=C/N(C)C)nnn1-c1ccc(Cl)cc1C#N
3%	COc1ccc(OC)c([C@@H]2Nc3ccc(C(=O)O)cc3[C@@H]3C=CC[C@@H]32)c1
-13%	C/C(=N\NC(=O)c1cc(C)[nH]n1)c1cccs1
-8%	CCCCN(C(=O)c1ccc(-c2ccc(Cl)cc2)o1)c1c(N)n(CC(C)C)c(=O)[nH]c1=O
?	O=C(O)CSc1nnc(-c2cccs2)n1-c1ccc(Cl)cc1
-18%	COc1cccc(C(=O)NCc2ccc3c(c2)cc(C)n3C)c1
0%	O=C(COC(=O)c1ccc2ncsc2c1)Nc1cc(Cl)ccc1F
-9%	CC1CCN(C(=O)COC(=O)c2cccs2)CC1
-9%	COc1cccc(-c2nnc(-c3ccccc3NC(=O)c3ccc(C(C)(C)C)cc3)o2)c1
-6%	CC(=O)Nc1cccc(NC(=O)c2ccc(C)c([N+](=O)[O-])c2)c1

Arranged by the number under VDR inhibitor (descending): some entries from above.
compound,VDR inhibitor
O=C(COC(=O)c1ccc2ncsc2c1)Nc1cc(Cl)ccc1F,0%
Cc1c(C(=O)/C=C/N(C)C)nnn1-c1ccc(Cl)cc1C#N,-2%
CC(=O)Nc1cccc(NC(=O)c2ccc(C)c([N+](=O)[O-])c2)c1,-6%
COc1cccc(-c2nnc(-c3ccccc3NC(=O)c3ccc(C(C)(C)C)cc3)o2)c1,-9%

Next section
VDR inhibitor	mol
3%	CCOc1ccccc1NC(=O)N1CCc2ccccc2C1
14%	Cc1ccccc1-c1noc(-c2ccc(N3CCOCC3)c([N+](=O)[O-])c2)n1
5%&12%	CC[C@H](C)[C@H](NC(=O)[C@H](C)NC(=O)[C@H](CC(N)=O)NC(=O)[C@H](CCCCN)NC(=O)[C@H](Cc1ccccc1)NC(=O)[C@H](CC(C)C)NC(=O)[C@@H](NC(=O)[C@@H](NC(=O)[C@H](CC(C)C)NC(=O)[C@@H]1CCCN1C(=O)[C@@H](NC(=O)[C@H](CCC(N)=O)NC(=O)[C@H](CO)NC(=O)[C@H](CCCCN)NC(=O)[C@H](CCC(=O)O)NC(=O)[C@H](CO)NC(=O)[C@@H](NC(=O)[C@H](CCSC)NC(=O)[C@H](Cc1ccccc1)NC(=O)CNC(=O)CNC(=O)[C@@H](N)Cc1ccc(O)cc1)[C@@H](C)O)[C@@H](C)O)C(C)C)[C@@H](C)O)C(=O)N[C@H](C(=O)N[C@@H](CCCCN)C(=O)N[C@@H](CC(N)=O)C(=O)N[C@@H](C)C(=O)N[C@@H](Cc1ccc(O)cc1)C(=O)N[C@@H](CCCCN)C(=O)N[C@@H](CCCCN)C(=O)NCC(=O)N[C@@H](CCC(=O)O)C(=O)O)[C@@H](C)CC
5%	O=C1NC(Cc2c[nH]c3ccccc23)C(=O)N1Cc1ccc(CN2C(=O)NC(Cc3c[nH]c4ccccc34)C2=O)cc1 (configuration not stated)
20%	COC(=O)c1cc(NC(=O)CN2CCOCC2)cc(C(=O)OC)c1
3%	O=C(NN=Cc1ccc([N+](=O)[O-])cc1)C1CC1
10%	COc1cc(/C=C/C(=O)OCC(=O)NCCc2ccc(S(N)(=O)=O)cc2)ccc1OCC#N
-4%	CCOC(=O)c1c(NC(=O)c2ccc(OCC)c(Br)c2)sc2c1CCCC2
-12%	Fc1ccc(NC(=S)NCc2cccnc2)cc1
2%	Cc1ccc(-n2nc3ccc(NC(=O)c4cccc([N+](=O)[O-])c4C)cc3n2)cc1

Going on with the list:
VDR inhibitor	mol
-4%	COCCN(C(=O)C(C)C)c1nnc(-c2cccc(C)c2)s1
-6%	CCN(CC)c1ncccc1C(=O)NCc1cccs1
1%	CCOC(=O)[C@@H]1[C@H]2COc3ccccc3[C@@H]2N2C(=O)N(c3ccc(Cl)cc3)C(=O)[C@]12C
-18%	CC(C)Oc1ccc(/C=C(\C#N)C(=O)NC2CC2)cc1
-7%	Cc1nc([N+](=O)[O-])c(C(=O)OCc2ccccc2Br)n1C
-12%	O=C(NNC(=O)c1cc(-c2ccc(Cl)cc2)nc2ccccc12)c1csc(N2CCOCC2)n1
-19%	Cc1ccc(NC2CCCN(C(=O)c3ccc(C)c(N4CCNC4=O)c3)C2)cc1C (configuration not stated)
-4%	CC1=CC(c2ccccc2)=NS(=O)(=O)N1
?	CCNc1ncc2nc(-c3cccs3)c(=O)n(Cc3ccc(F)cc3)c2n1
-5%	CN(C)C(=S)NC(=NCc1ccc([N+](=O)[O-])cc1)c1ccccc1

Next part:
VDR inhibitor	mol
8%	Cc1ncc(N=Nc2ccccc2)c(-c2ccccc2)n1
0%	COc1ccc(NC(=O)c2ccc(NC(=O)c3ccncc3)cc2)cc1
-5%	O=[N+]([O-])c1cc(/C=N/N2CCOCC2)cs1
-5%	Cc1ccccc1-c1nc(CS(=O)CC(=O)NCCCN(C)c2ccccc2)c(C)o1 (configuration not stated)
6%	Cc1ccc(NC(=O)c2cccc(OCc3c(C)noc3C)c2)cc1
-5%	Cc1ccc(/C=C/C(=O)N(Cc2cccs2)C2CCS(=O)(=O)C2)cc1 (configuration not stated)
6%	CCOC(=O)C1CCN(C(=O)C(=O)Nc2ccc3nc4n(c(=O)c3c2)CCCCC4)CC1
4%	Cc1ccc(CC(=O)NCCS(=O)c2ccc(C)cc2)cc1 (configuration not stated)
-9%	CC(C)C[C@@H](CSc1ccccc1)N1CCN(CCc2ccccc2)CCC1=O
0%	O=C(Nc1ccc(Cl)cn1)C1CCN(c2ncnc3c2nc2n3CCCCC2)CC1

Additional structures
VDR inhibitor	mol
-2%	CC(=O)Nc1c(O)nc(SCC(=O)Nc2nnc(CC(C)C)s2)[nH]c1=O
9%	COc1ccc(NC(=O)CSCC(=O)N(C)CC(=O)Nc2cccc3ccccc23)cc1
-2%	O=C(CCC1CCCC1)N=C1SC2CS(=O)(=O)CC2N1c1ccccc1F (configuration not stated)
-14%	O=C(Nc1nc(=S)ss1)c1ccc(Cl)cc1Cl
0%	CCC1CCCCN1CCn1c(=S)[nH]c2cc(OC)c(OC)cc2c1=O (configuration not stated)
0%	O=C(CSc1nc(-c2ccccc2)cc(C(F)(F)F)n1)N1CCOCC1
4%	O=C(CN1CCC(C(=O)c2cccc(Cl)c2)CC1)Nc1ccc(C(=O)O)cc1
-9%	Cc1ccc2c(c1)N(CC(=O)NC1CCC(C)CC1)C(=O)CO2 (configuration not stated)
-20%	CCC(=O)Nc1cccc(C2=NOC3(C2)C[C@H](C(N)=O)N(C(=O)c2ccc(Cl)cc2)C3)c1 (some centres not stated)
-25%	CN(C)CCCN(C(=O)c1ccc(S(=O)(=O)N2CCCC2)cc1)c1nc2ccc(Br)cc2s1

Remaining list, next part:
VDR inhibitor	mol
-2%	COc1ccc(NC(=O)CCC(=O)NCCO)cc1
?	COc1ccc2[nH]c3c(c2c1)CCN1C(=O)C(CC(=O)NCCc2ccccn2)C[C@H](C(=O)N2CCOCC2)[C@@]31CCC1CCCC1 (some centres not stated)
-28%	CCOC(=O)C(C)Oc1cccc2c(=O)n(CC(=O)Nc3ccc(OCC)cc3)ccc12 (configuration not stated)
16%	COc1ccc2[nH]cc(CCNC(=O)Nc3ccc(F)cc3)c2c1
-4%	O=C(Nc1cc2ccccc2oc1=O)c1ccccc1
0%	Cc1ccc(CNC(=S)NC2CCC(C(C)(C)C)CC2)cc1 (configuration not stated)
?	O=C(NC(=S)Nc1ccccc1Cl)c1csnn1
?	O=C(COc1ccc([N+](=O)[O-])cc1)Nc1ccc2c(c1)nc1n2CCOC1
-17%	Cc1ccc(CCC(=O)Nc2ccc(Br)cc2)o1
16%	CCC(=O)c1ccc(OCC(=O)OCC(=O)Nc2ccc3c(c2)OCCO3)cc1

(listing goes on)
VDR inhibitor	mol
2%	CCC(CC)C(=O)NCc1cccnc1
6%	O=C(CCc1ccc(S(=O)(=O)N2CCOCC2)cc1)NCCc1ccccn1
19%	CC(C)(C)OC(=O)N1CCC(c2c(C(=O)N3CCC(c4ccccc4)C3)cnn2-c2ccc(Cl)cc2)CC1 (configuration not stated)
11%	COc1ccc(C(=O)Nc2ccc(N(C)Cc3ccccc3)c(C(=O)O)c2)cc1
-8%	COc1cccc(NC(=O)CN2CCSc3ccccc32)c1
9%	CCC(C)c1ccccc1N1CC(C(=O)N2CCN(S(=O)(=O)c3ccccc3Br)CC2)CC1=O (configuration not stated)
11%	O=C(/C=C/c1ccccc1)NCCO
-2%	Cc1ccc(CCNC(=O)CCCc2nnc3n(C)c(=O)c4sccc4n23)cc1
0%	C[C@H](CO)N1C[C@H](C)[C@@H](CN(C)C)Oc2c(NS(=O)(=O)c3cn(C)cn3)cccc2C1=O
-1%	CCOc1ccccc1NC(=O)c1c(NCc2sccc2C)sc2c1CCC(C)C2 (configuration not stated)

Structures listed so far with an aryl thioether with sulfur outside any ring, in the order listed:
VDR inhibitor	mol
-11%	CC(=O)Nc1ccc2c(CSc3nncs3)cc(=O)oc2c1
3%	CSc1ncccc1C(=O)OCC(=O)N(CC(C)C)c1c(N)n(Cc2ccccc2)c(=O)[nH]c1=O
-15%	Cc1ccc(C#N)c(SCC(=O)Nc2nccs2)n1
?	O=C(O)CSc1nnc(-c2cccs2)n1-c1ccc(Cl)cc1
-9%	CC(C)C[C@@H](CSc1ccccc1)N1CCN(CCc2ccccc2)CCC1=O
-2%	CC(=O)Nc1c(O)nc(SCC(=O)Nc2nnc(CC(C)C)s2)[nH]c1=O
0%	O=C(CSc1nc(-c2ccccc2)cc(C(F)(F)F)n1)N1CCOCC1

(next part)
VDR inhibitor	mol
3%	CC(=O)N1CCN(CC(=O)Nc2c(Cl)cc(Cl)cc2Cl)CC1
-20%	CC1C(=O)N2CCCc3cc(NC(=O)C4CCCCC4)cc1c32 (configuration not stated)
-2%	CC(C)CC(NC(=O)C(CC(C)C)NC(=O)OC(C)(C)C)C(N)=O (configuration not stated)
9%	COc1ccc(Br)cc1C(=O)NCc1cccnc1
1%	CCc1cccc(CC)c1NC(=O)CO/N=C(\C)c1cccs1
-13%	COc1cccc(OC)c1C(=O)OCC(=O)Nc1ccc(OC(F)(F)F)cc1
0%	CN(C)CC(CCC(CN(C)C)C(O)(c1ccccc1)c1ccccc1)C(O)(c1ccccc1)c1ccccc1 (configuration not stated)
27%	CN1C(C)(C)CC(NC(=O)c2ccco2)CC1(C)C
-13%	COc1ccccc1C(c1nnnn1C(C)(C)C)N1CCN(C(=O)c2ccco2)CC1 (configuration not stated)
-22%	CCOc1ccccc1C(=O)NC(C)c1ccc(-n2ccnc2)cc1 (configuration not stated)

(cont.)
VDR inhibitor	mol
0%	CCCC(=O)N1CCC(Cc2ccccc2)CC1
-5%	O=C(CN1CCN(c2ccccc2)CC1)N1CCN(c2ccccc2)CC1
-4%	CCC(CC)C(=O)Nc1cccc(C(=O)NCc2ccco2)c1
-14%	COc1ccc(S(=O)(=O)N2CCOCC2)cc1NC(=O)CC(C)c1ccccc1 (configuration not stated)
-18%	CCOC(=O)c1c(S(=O)(=O)N2CCN(Cc3ccccc3)CC2)c(C)n(C)c1C

2 entries from above, as tab-separated lines.
mol	VDR inhibitor
Cc1ccc(-n2nc3ccc(NC(=O)c4cccc([N+](=O)[O-])c4C)cc3n2)cc1	2%
CCC(CC)C(=O)NCc1cccnc1	2%

Screens: PubChem BioAssay, National Center for Advancing Translational Sciences (NCATS)
